Assay outcomes from PubChem BioAssay.
INS promoter inh = inhibitors of insulin promoter-driven GFP, primary screen, imaging, TRM-6 cells (human fetal islet line), eGFP reporter, cell count; reporter expression induced with tamoxifen; inhibition, % at 2 µM; 130,000 compounds, 0.9% hits; AID 1273, 2008;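 active = inhibition above the mean plus 3 SD, with well images judged a real hit on visual review, cut at about 60% in these data, passing the limit was not always enough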
HSV augment = enhancers of HSV replication in host cells, fold increase, host cell viability; AID 1956, 2009; maximum fold increase; HSV replication augmentation in cells; 220,000 compounds, 0.005% hits;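 active = peak rise of 1.5-fold or more in the series; tested in PC3 cells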;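 also: first round at 10 µM; read as green reporter fluorescence; hits show the peak of a series up to 25 µM; 1 = signal of infected wells without compound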
RGS16-Gao HTS = modulators of RGS16 binding to Galphao, primary screen, biochemical, human proteins, multiplexed bead flow cytometry; 220,000 compounds, 0.38% hits; binding response (% of control), % at 10 µM; AID 1441, 2008; bead-based flow cytometry RGS16-Galphao binding, fluorescence; actives lie on both sides; Regulator of G-protein signaling 16 (Homo sapiens) + Guanine nucleotide-binding protein …;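 active = below 25% or above 175%, edge rows of some plates excepted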;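 also: Galphao activated by GDP with aluminum fluoride before binding; 100% = wells without compound and 0% = beads without RGS; some results beyond the cut were filed as inactive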
PKD1 kinase inh = inhibitors of human PKD1 kinase, biochemical, fluorescence polarization; Serine/threonine-protein kinase D1 (Homo sapiens), Q15139; PKD1 kinase fluorescence polarization assay; 200,000 compounds, 0.056% hits; inhibition, %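 (about 10 µM by stock and volumes)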;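 active = inhibition of 50% or more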;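 also: controls were vehicle for no effect and a reference inhibitor for full effect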
Target sequence (Q15139 whole entry, looked up): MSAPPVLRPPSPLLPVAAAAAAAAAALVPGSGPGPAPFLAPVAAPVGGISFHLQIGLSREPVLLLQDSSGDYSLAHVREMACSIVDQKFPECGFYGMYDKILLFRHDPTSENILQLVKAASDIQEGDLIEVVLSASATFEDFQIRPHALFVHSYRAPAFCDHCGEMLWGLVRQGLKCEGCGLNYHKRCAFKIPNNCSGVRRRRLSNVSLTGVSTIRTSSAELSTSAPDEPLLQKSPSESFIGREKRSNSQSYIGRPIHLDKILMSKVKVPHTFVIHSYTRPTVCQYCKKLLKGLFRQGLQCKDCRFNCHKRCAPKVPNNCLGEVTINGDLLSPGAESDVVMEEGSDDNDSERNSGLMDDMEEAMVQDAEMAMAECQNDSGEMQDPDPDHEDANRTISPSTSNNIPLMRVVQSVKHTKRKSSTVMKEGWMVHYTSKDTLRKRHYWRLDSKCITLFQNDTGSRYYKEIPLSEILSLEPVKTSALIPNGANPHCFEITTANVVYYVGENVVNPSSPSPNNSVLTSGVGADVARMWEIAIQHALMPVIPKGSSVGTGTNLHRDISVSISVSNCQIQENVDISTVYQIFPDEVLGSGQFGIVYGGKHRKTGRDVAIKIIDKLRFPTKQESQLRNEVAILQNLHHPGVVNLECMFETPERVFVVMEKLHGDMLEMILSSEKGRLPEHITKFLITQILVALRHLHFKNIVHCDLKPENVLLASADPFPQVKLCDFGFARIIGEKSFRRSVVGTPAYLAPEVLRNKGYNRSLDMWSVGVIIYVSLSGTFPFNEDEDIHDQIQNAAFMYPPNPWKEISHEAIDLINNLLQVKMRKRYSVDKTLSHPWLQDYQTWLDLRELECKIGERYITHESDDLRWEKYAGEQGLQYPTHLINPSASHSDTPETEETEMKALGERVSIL
GALR2 ag = GALR2 receptor agonists, primary screen, cell-based. Galanin receptor type 2 (Homo sapiens), O43603. GALR2-expressing cells, agonist activation read-out. activation, %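 (tested at 5 µM)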. 140,000 compounds, 0.48% hits. AID 803, 2007;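 active = above mean plus 3 SD of all compounds, about 5% in these data, not always enough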;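 also: 0% = vehicle buffer wells and 100% = reference agonist at full effect; tested in CHO reporter cells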
INS promoter inh cell count = further read-out of INS promoter inh, marked with its call; normalized cell count, %; measured here: cell count, toxicity; reference of the scale not given here;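 cells exposed to compound for 48 h; stained nuclei by imaging scaled within each plate; lower means fewer cells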
HSV augment primary fold = also measured in HSV augment; calls as there; fold increase; compound at 10 µM; measured here: primary screen fold increase 10 uM; tested in PC3 cells;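 GFP signal in the first replicate; 1 = infected wells without compound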
Starred values were filed as active, the others as inactive; i = inactive; . = not tested or not shown; [ ] = remark or other dose.

SMILES	INS promoter inh	INS promoter inh cell count	HSV augment	HSV augment primary fold	RGS16-Gao HTS	PKD1 kinase inh	GALR2 ag
COCCn1c(=S)[nH]c2cc(C(=O)N3CCC(C(N)=O)(N4CCCCC4)CC3)ccc2c1=O	50	81	i	1.1	102	-2	-1.2
CCOc1cc(C(=O)Nc2ccc3c(c2)OCO3)ccc1OC(F)F	.	.	i	0.89	93	-16	-0.7
O=C(CCCC(=O)OCC(=O)c1ccc(Cl)cc1Cl)Nc1cc(C(F)(F)F)ccc1Cl	17	103	i	0.77	94	0	0.4
CCOC(=O)C1C(=O)NC(N2CCN(CC)CC2)=NC1c1ccccc1 (stereo unspecified)	.	.	i	1	110	-10	0.8
Cc1ccc(-c2cc(C(F)F)nc(S(C)(=O)=O)n2)cc1	27	82	i	0.7	109	0	.
OC(COC(c1ccc(F)cc1)c1ccc(F)cc1)CN1CCc2ccccc2C1 (stereo unspecified)	.	.	i	1	163	8	0.0
O=C(COC(=O)C(O)c1ccccc1)c1ccc2c(c1)OCCO2 (stereo unspecified)	68	88	i	0.93	107	-3	-1.2
Cc1csc(Nc2ccc(C(=O)O)cc2)n1	.	.	i	1	106	.	.
CC(=O)N1C(=O)C2(C(C#N)=C(N)Oc3c2c(C)nn3-c2ccccc2)c2ccccc21 (stereo unspecified)	57	82	i	0.92	95	-7	-1.2
O=C(Nc1nccs1)c1ccc(S(=O)(=O)NCC2CCCCC2)cc1	-12	94	i	1.1	98	-9	-2.3
O=C(c1nc2ccc(Cl)cn2c1CNCCn1ccnc1)N1CCCCCCC1	55	40	i	0.88	112	-8	.
CCc1nnc(NC(=O)c2cccc(S(=O)(=O)N3CCN(c4ccccc4)CC3)c2)s1	.	.	i	0.93	145	9	-2.4
CC(C)C1CCC(C(=O)N[C@H](Cc2ccccc2)C(=O)O)CC1 (stereo partly specified)	.	.	i	0.87	100	.	.
O=C(Nc1ccccc1N1CCCC1)c1ccco1	9	101	i	0.89	102	-5	-1.2
COc1ccccc1-c1c(C)nn2c(C)c(C(C)=O)cnc12	14	95	i	1.1	103	-7	-2.3
O=C(CSCC(=O)Nc1nc(-c2ccc3c(c2)OCO3)cs1)Nc1nccs1	.	.	i	0.89	99	-6	.
Cc1c(NC(=O)COC(=O)/C=C/c2ccc(Cl)cc2)c(=O)n(-c2ccccc2)n1C	36	130	i	0.89	100	-4	.
Cc1ccc(-c2cn(S(=O)(=O)c3ccc(C)cc3)nc2N)cc1	-187	88	i	0.93	101	-3	-1.8
O=C(CSc1nnc(CNC(=O)c2cccs2)o1)NCC1CCCO1 (stereo unspecified)	.	.	i	0.96	103	6	.
COC(=O)CN(C)C(=O)CC1C(=O)NCCN1CC(C)(C)C (stereo unspecified)	28	98	i	0.98	96	-1	.
CCCCc1ccc(NC(=O)CC(C)=O)cc1	3	85	i	1	109	-6	0.3
O=C1c2ccccc2C(=O)N1c1cccc2cccnc12	32	82	i	1	76	5	-1.5
CC(C)(C)Nc1nc(NN)nc(NC(C)(C)C)n1	.	.	i	1.1	99	-4	-2.2
O=C(CCNS(=O)(=O)c1c(Cl)cccc1Cl)OCC(=O)c1ccccc1	-49	96	i	0.86	110	-8	-1.9
COc1ccc2c(c1)C1CC(C)(NC(=O)C1C(=O)c1ccccc1)O2 (stereo unspecified)	61	31	i	1	104	1	1.9
(next part)
SMILES	INS promoter inh	INS promoter inh cell count	HSV augment	HSV augment primary fold	RGS16-Gao HTS	PKD1 kinase inh	GALR2 ag
CC(=O)N1N=C(c2cccnc2)OC1c1ccc(C(C)C)cc1 (stereo unspecified)	.	.	i	0.98	112	-4	.
O=C(CN(c1ccc(Cl)c(C(F)(F)F)c1)S(=O)(=O)c1ccccc1)N/N=C/c1cccc2c1OCCO2	.	.	.	.	102	-2	-0.4
O=C(CCC1N=C2c3ccccc3N=C(SCc3ccc(F)cc3)N2C1=O)NCc1ccco1 (stereo unspecified)	-16	78	i	0.93	93	3	1.5
O=C(c1cccnc1)N1N=C(C2CC2)CC1(O)C(F)(F)F (stereo unspecified)	27	117	i	0.98	104	3	.
CCOC(=O)c1c(O)c2ccccc2oc1=O	.	.	i	0.94	97	.	.
COC(=O)c1ccc(S(=O)(=O)c2ccccc2)c(N)c1	-36	106	i	0.65	99	-5	-0.7
COc1ccc(S(=O)(=O)CCC(=O)N2c3ccccc3CC2C)cc1 (stereo unspecified)	-31	51	i	0.89	103	-7	-1.0
COc1ccc(OC)c(S(=O)(=O)N2CCC(C(=O)N3CCN(Cc4ccccc4)CC3)CC2)c1	15	114	i	0.92	100	-3	-0.6
Cc1onc(-c2ccccc2Cl)c1C(=O)Nc1ccc(Cl)cn1	.	.	i	0.98	110	.	.
Cc1[nH]n(-c2cccc([N+](=O)[O-])c2)c(=O)c1-c1ccccc1	.	.	i	0.89	97	-1	.
COc1ccccc1C1CN(c2ccccc2)N=C1c1cccs1 (stereo unspecified)	-28	46	i	1	100	-7	61*
CCOc1ccc(-c2n[nH]c(=S)n2/N=C/c2cc3c(cc2[N+](=O)[O-])OCO3)cc1	-26	136	i	0.89	103	-6	0.6
CC(=O)n1cc([C@H]2C=C(C(=O)N3CCN(Cc4ccc5c(c4)OCO5)CC3)O[C@@H](OCc3ccc(CO)cc3)C2)c2ccccc21	.	.	i	0.99	96	0	.
Cc1cccc(-n2c(SCC(N)=O)nnc2-c2ccccn2)c1C	-12	93	i	1.1	106	-8	-1.5
COC(=O)c1cc(NC(=O)Nc2ccccc2)ccc1Cl	11	94	i	0.82	104	-4	-3.9
Cc1cc(C)nc(NC(=O)c2cc(Br)ccc2Cl)n1	.	.	i	1	103	1	.
Cc1cc(N2CCN(S(=O)(=O)c3ccc4c(c3)OCCO4)CC2)n2ncnc2n1	64	102	i	1.1	106	-2	1.5
O=C(CON=C1c2ccccc2-c2ccccc21)NC12CC3CC(CC(C3)C1)C2	0	136	i	0.96	64	0	-1.7
COc1ccc(CNc2nc(SC)n[nH]2)cc1OC	44	137	i	0.87	95	1	-2.6
CCOC(=O)c1c2n(c3ccc(O)cc13)CCCCC2	86*	145*	i	0.91	101	-6	-2.6
Cc1cnc(NC(=O)CSc2nnc(-c3ccncc3)n2C2CCCCC2)s1	.	.	i	0.88	102	-2	-0.4
COc1ccc(OC)c(NC(=O)CN(Cc2ccc(Cl)cc2)S(C)(=O)=O)c1	.	.	i	0.97	100	-2	.
Cc1ccc(S(=O)(=O)NCC(=O)N(CC(=O)NCc2ccco2)Cc2ccc3c(c2)OCO3)cc1	26	90	i	0.92	97	1	-3.2
CCOC(=O)c1c(NC(=O)C(F)(OC)C(F)(F)F)sc(C(=O)N2CCCCC2)c1C (stereo unspecified)	.	.	.	.	100	4	1.3
O=C1NC(=O)/C(=C\c2ccccc2OCc2ccc([N+](=O)[O-])cc2)N1	-41	105	i	0.97	110	-6	0.4

A section of the results above:
SMILES	INS promoter inh	INS promoter inh cell count	HSV augment	HSV augment primary fold	RGS16-Gao HTS	PKD1 kinase inh	GALR2 ag
CCOC(=O)c1c(NC(=O)C(F)(OC)C(F)(F)F)sc(C(=O)N2CCCCC2)c1C (stereo unspecified)	.	.	.	.	100	4	1.3
O=C1NC(=O)/C(=C\c2ccccc2OCc2ccc([N+](=O)[O-])cc2)N1	-41	105	i	0.97	110	-6	0.4

Profiles as entered above:
`COc1ccc(CNc2nc(SC)n[nH]2)cc1OC` is listed with INS promoter inh: 44; INS promoter inh cell count: 137; HSV augment: i; HSV augment primary fold: 0.87; RGS16-Gao HTS: 95; PKD1 kinase inh: 1; GALR2 ag: -2.6
`COc1ccc(S(=O)(=O)CCC(=O)N2c3ccccc3CC2C)cc1` (stereo unspecified) is listed with INS promoter inh: -31; INS promoter inh cell count: 51; HSV augment: i; HSV augment primary fold: 0.89; RGS16-Gao HTS: 103; PKD1 kinase inh: -7; GALR2 ag: -1.0

The main list resumes; the 2 compounds before the break are reprinted first.
SMILES	INS promoter inh	INS promoter inh cell count	HSV augment	HSV augment primary fold	RGS16-Gao HTS	PKD1 kinase inh	GALR2 ag
CCOC(=O)c1c(NC(=O)C(F)(OC)C(F)(F)F)sc(C(=O)N2CCCCC2)c1C (stereo unspecified)	.	.	.	.	100	4	1.3
O=C1NC(=O)/C(=C\c2ccccc2OCc2ccc([N+](=O)[O-])cc2)N1	-41	105	i	0.97	110	-6	0.4
C/C(=C/C(=O)N1CCN(C)CC1)C(=O)O	36	61	i	1.1	234*[activator]	-7	-1.5
Cc1ccsc1/C=N/NC(=O)c1cccc(S(=O)(=O)Nc2ccccc2Cl)c1	.	.	i	1	107	-6	1.1
Cc1ccc(-c2csc(NC(=O)CSc3nc(C)cc(=O)[nH]3)n2)cc1	6	126	i	1.1	92	-13	-0.2
C#CC(C)OC(=O)Nc1cnccc1C(F)(F)F (stereo unspecified)	.	.	i	1	104	.	.
O=C(NCc1cccnc1)c1ccc(-c2ccc(Cl)cc2)o1	.	.	i	0.97	100	-11	.
COc1ccc(C2C(=O)N(C3CCCCC3)CC(=O)N2Cc2ccc3c(c2)OCO3)cc1 (stereo unspecified)	.	.	.	.	89	-17	-0.8
CC(C)CCn1cnc2c(cnn2-c2ccc(Cl)cc2)c1=O	.	.	i	1	98	9	0.2
Cc1ccccc1C(=O)NCCN1CCOCC1	.	.	i	0.96	107	6	.
O=C(CN1CCN(c2ccc(O)cc2)CC1)Nc1cc(S(=O)(=O)N2CCCC2)ccc1Cl	0	117	i	0.8	99	-4	.
CN1CCCC(CC2Oc3ccccc3Sc3ccccc32)C1 (stereo unspecified)	-52	89	i	0.74	101	-3	1.1
Cn1c(CCNC(=O)c2ccc(Cl)cc2)n[nH]c1=S	.	.	i	0.91	108	4	-2.2
COc1ccc(-n2c(N)c(Br)c(=O)[nH]c2=O)cc1	-46	30	i	0.77	79	-3	-1.2
CS(=O)(=O)c1ccc(S(=O)CC(=O)OCc2ccccc2)c([N+](=O)[O-])c1 (stereo unspecified)	-192	12	i	0.69	100	-1	.
COc1cccc(/C=N/NC(=O)C(C)Cn2cnc3ccccc32)c1 (stereo unspecified)	.	.	i	1.1	98	.	.
CC(C)OC(=O)CSc1nc2c(c(C3CC=CCC3)c1C#N)CCC2 (stereo unspecified)	16	155	i	0.72	117	-7	-1.3
Cc1ccc(C(=O)CC2(O)C(=O)N(Cc3ccccc3)c3ccccc32)o1 (stereo unspecified)	-90	99	i	0.98	105	-3	0.0
CCOC(=O)N1CCN(c2cc3nccnc3cc2F)CC1	25	132	i	1	100	-2	-0.3
O=C(O)CC1S/C(=N/N=C2CCCCC2)N(c2ccccc2)C1=O (stereo unspecified)	8	152	i	1	108	-17	-0.5
CCOC(=O)Cn1c(C)[n+](CC(=O)c2ccccc2)c2ccccc21	.	.	i	1	98	.	.
Cc1cccc(OCc2nnc(SCC(=O)Nc3nccs3)o2)c1	.	.	i	0.93	98	.	.
CCC(=O)Nc1ccc(C(=O)n2nc(C)cc2C)cc1	.	.	i	0.9	102	7	-0.7
CCOC(=O)c1c(NC(=O)C2C3C=CC(C3)C2(C)C(=O)O)sc2c1CCCC2 (stereo unspecified)	8	114	i	1.2	102	8	-0.3
COc1cccc(/C=N/NC(=O)C(=O)N2CCCC2)c1	-50	143	i	1	.	3	-2.6
COc1cc(C(=O)OC(C)C(=O)NCC2CCCCC2)cc(NC(=O)c2ccco2)c1OC (stereo unspecified)	45	107	i	0.91	98	9	0.0
Cc1cc(C(=O)NCC(=O)OCC(=O)N(C)C2CCCCC2)ccc1[N+](=O)[O-]	30	115	i	0.95	98	3	-0.5
(list continues)
SMILES	INS promoter inh	INS promoter inh cell count	HSV augment	HSV augment primary fold	RGS16-Gao HTS	PKD1 kinase inh	GALR2 ag
N/C(CCN1CCCCC1)=N/O	32	138	i	0.99	100	1	-0.7
Cc1nc(-c2ccc(S(=O)(=O)NCc3ccccn3)s2)cs1	.	.	i	0.94	99	.	.
O=S(=O)(c1ccc(OCc2nc3ccccc3s2)c(Cl)c1)N1CCOCC1	.	.	i	1.1	112	-10	0.9
CC(C)Oc1ccc(CCc2nnc(SC(C)C(=O)O)n2-c2ccccc2)cc1 (stereo unspecified)	.	.	i	0.99	105	-1	.
COc1ccc(/C=C/C(=O)c2ccc3c4c(cccc24)CC3)cc1OC	16	80	i	0.62	100	-7	-1.0
COc1nccnc1NS(=O)(=O)c1ccc(NC(=S)NC(=O)c2ccccc2)cc1	-39	138	i	1.1	104	2	-0.6
COc1ccc(-c2c(C)nc(N)nc2-c2ccc(OCc3ccc(C)cc3)cc2O)cc1OC	-50	83	i	0.89	103	0	-1.4
CN(C(=O)COC(=O)c1ccc([N+](=O)[O-])cc1)c1ccccc1	.	.	i	1	104	-8	.
